Vero viability: viability loss in Vero cells – cytotoxicity control for Vif-APOBEC3G degradation inhibitor project, dose response (AID 1117358). Vero viability, CellTiter-Glo ATP luminescence, 72 h; reference of the scale not given here. viability, % at the top dose, mostly 40 µM; hits show CC50 in µM. 2,300 tested, 7% active;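 active = viability down to 80% or less at some dose; inactive = above 80% at all doses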
An asterisk follows results filed as active. A portion of the library; the hit share may differ from the screen's.

| item | Compound | Vero viability |
| --- | --- | --- |
| 1 | CCOP(=O)(C(NC(=O)c1ccccc1Cl)=C(Cl)Cl)c1ccccc1 (stereo not drawn) | 107% |
| 2 | Cc1sc2ncn(CC(=O)NCC(=O)N3CCC4(CC3)OCCO4)c(=O)c2c1C | 97% |
| 3 | CCN(CC)C(=O)c1ccc(NC(=O)Cn2nc(C)c3ccccc3c2=O)cc1 | 99% |
| 4 | O=c1[nH]c(=O)n(Cc2ccccc2)c(O)c1C=NCCN1CCNCC1 | 104% |
| 5 | Nc1c(C(=O)NC2CCCC2)c2nc3ccccc3nc2n1CC1CCCO1 (stereo not drawn) | 85% |
| 6 | CCCCN1C(=O)NC(=O)C2(Cc3ccccc3N3CCOCC32)C1=O (stereo not drawn) | 106% |
| 7 | O=c1[nH]c(=O)n(Cc2ccccc2)c(O)c1C=Nc1ccc(CN2CCOCC2)cc1 | 92% |
| 8 | CCC/C(=N\O)c1c[nH]c2ccccc12 | 87% |
| 9 | O=c1cccc2n1CC1CC2CN(C(c2cccc(F)c2)c2sc3ncnn3c2O)C1 (stereo not drawn) | 110% |
| 10 | CCN(CC)c1ccc(N=Cc2c(O)n(-c3ccc(Cl)cc3)c(=O)[nH]c2=O)cc1 | 100% |
| 11 | O=c1[nH]c(=O)n(Cc2ccco2)c(O)c1C=NCCCn1ccnc1 | 107% |

Another view of 2 compounds above.
#2 Cc1sc2ncn(CC(=O)NCC(=O)N3CCC4(CC3)OCCO4)c(=O)c2c1C
  Vero viability: 97%

#3 CCN(CC)C(=O)c1ccc(NC(=O)Cn2nc(C)c3ccccc3c2=O)cc1
  Vero viability: 99%

Results in sequence from the list.
Compounds 1 to 7 in Vero viability, in turn: 107%, 97%, 99%, 104%, 85%, 106%, 92%

Bioassay records from PubChem BioAssay.
